BJeLR viability: BJeLR cell viability loss; BJeLR (HRASV12) viability, CellTiter-Glo ATP luminescence, 48 h; reference of the scale not given here; inhibition, % (no concentration beside the values); 0.17% of 300,000 active; AID 1554;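 active = replicate mean above 50%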;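 note: 50 nL library stock added to about 25 µL; numbers are from one replicate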
PrP 5UTR inh: inhibition of PrP 5' UTR reporter expression. cell-based PrP 5' UTR mRNA reporter, plate reader. inhibition, % (no concentration beside the values). 0.35% of 340,000 active. AID 488862;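 active = every replicate at 50% or more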;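 note: 0 = median of the neutral control wells; tested in H4 reporter cells; numbers are from one replicate; inactives centre near -14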
RN4220 kill: kills Staphylococcus aureus RN4220; 0.33% of 330,000 active; S. aureus RN4220 growth, OD600, 16 h; inhibition, % (concentration not given with the values);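 active = z-score of -3 or lower and OD600 up to 0.18 on both plates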;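 note: plate controls were untreated cells for no effect and reference antibiotic for full effect; stock transfer was 100 nL into about 80 µL; one replicate is shown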
Sa ugtP lethal: kills S. aureus RN4220 lacking UgtP. S. aureus RN4220 ugtP deletion, OD600 growth, 16 h; some inactives read as strong as hits. growth inhibition, % (no concentration beside the values). 0.54% of 330,000 active. AID 1259309;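 active = z-score under -3 and OD600 up to 0.15 on both plates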;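 note: plate controls were untreated wells for no effect and antibiotic for full effect; wells of about 80 µL received 100 nL stock; the first replicate is given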
Mtb hypoxia inh: reduces hypoxia-regulated biosensor signal in M. tuberculosis; AID 1159583; M. tuberculosis hypoxia-regulated fluorescent reporter, fluorescence; fluorescence inhibition, % (concentration not given with the values); 0.1% of 300,000 active;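 active = 35 to 45% if threefold the growth effect, above 45% if 1.5-fold the growth effect; inactive = the rest, general growth blockers included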;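 note: wells of about 50 µL received 100 nL stock; 0% = vehicle wells and 100% = reference inhibitor wells; whole bacteria with a GFP reporter of the hypoxia response; strong numbers were not always called active; many hits fall short of the cut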
Autofluor counter: flagged as autofluorescent in microsphere protease counterscreen; fluorescence intensity (concentration not given with the values); compound autofluorescence counterscreen, microsphere flow cytometry; stronger effect = higher value; 3.1% of 360,000 active;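 active = at least 3 SD above the mean of all compounds, about 16000 in these data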;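 note: 100 nL of 1 mM stock went into each well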
Mtb hypoxia inh growth: also measured in Mtb hypoxia inh; calls as there; growth inhibition, %; measured here: M. tuberculosis growth (absorbance);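 0% = vehicle and 100% = reference antibiotic; read after six days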
An asterisk follows results filed as active; x = not tested or not shown.

molecule	BJeLR viability	PrP 5UTR inh	RN4220 kill	Sa ugtP lethal	Mtb hypoxia inh	Mtb hypoxia inh growth	Autofluor counter
COc1ccc(OC)c(S(=O)(=O)Nc2cc(C)on2)c1	-3	6	2.5	2	0	5	5467
CC(=O)c1c(C)[nH]c(C(=O)NC2CCCCC2)c1C	2	-13	-2.3	0	x	x	3973
O=C(O)CC1(c2ccccc2)C(=O)c2ccccc2C1=O	-7	-17	7.1	-6	6	6	8945
CCN(CC)CCCNC(=O)C1CCC(=O)N(c2ccc(OC)cc2)C1c1ccc(F)cc1 (stereo unspecified)	-13	-18	4.9	1	10	6	9752
O=[N+]([O-])c1ccccc1S(=O)(=O)Nc1ccc2c(c1)OCCO2	5	-3	2.2	0	-2	12	3789
Cc1ccccc1-c1nc(CS(=O)CC(=O)NCCN2CCN(Cc3ccccc3)CC2)c(C)o1 (stereo unspecified)	2	-14	-0.1	-2	-6	-5	21943*
COc1cc(CNCc2cccc3ccccc23)cc(OC)c1	0	-16	1.4	-11	-2	9	4198
CC(=NNc1cc(C)nc(-c2ccccc2O)n1)c1ccccc1	x	x	-12	8	2	10	x
Cn1cccc1/C=N/n1c(-c2ccc(Cl)cc2Cl)n[nH]c1=S	7	11	x	x	x	x	2611
CC(Sc1nnnn1C)C(=O)Nc1ccc(N2CCOCC2)cc1 (stereo unspecified)	-3	-20	-3.7	-9	-1	4	3989
COC(=O)c1c(C)[nH]c(-c2csc(N)n2)c1C	-13	-29	3.1	-5	1	0	5698
Cc1ncc(CN2CCCC(C(=O)Nc3ccc(-c4ccco4)cc3)C2)n1C (stereo unspecified)	1	-26	-1.3	2	2	6	6167
O=C1c2ccccc2C(Nc2ccc3c(c2)OCCO3)N1Cc1ccco1 (stereo unspecified)	-3	-30	4.5	11	x	x	5450
COc1cccc(C(=O)NN=C2SCC(=O)N2CCc2ccc(OC)c(OC)c2)c1	x	x	-2.6	-6	3	10	x
O=C(c1cccc(NS(=O)(=O)c2ccc(F)c(F)c2)c1)N1CCCCC1	x	-11	5.9	5	0	0	6600
COc1cccc(NC(=O)COC(=O)c2c(NC(C)=O)sc(C)c2C)c1	x	-12	1.3	-4	5	8	6041
Brc1ccc(-c2cnco2)cc1	5	-40	4.3	5	4	5	4236
Nc1scc2c(C(=O)NN=Cc3ccc(Cl)cc3)nn(-c3ccccc3)c(=O)c12	x	x	22	-15	-2	5	x
COc1ccc(OCc2nnc(SCC(=O)Nc3cccc(Cl)c3)o2)cc1	-4	-15	1.5	7	4	6	3127
CCC(=O)Oc1ccc(C/C(=N\O)c2ccc(O)cc2O)o1	-12	-21	x	x	x	x	9788
COc1cccc(N2CCN(C(=O)c3cc4c(=O)n(Cc5ccccc5)ccc4nc3C)CC2)c1	7	-4	x	x	x	x	5226
N#CC1=C(N)NC(SCc2ccc(Br)cc2)=C(C#N)C12CCCCC2	-3	-20	17	28	-22	-9	8903
CCC(C)n1c(O)c(C=NC(C)c2ccccc2)c(=O)[nH]c1=S (stereo unspecified)	0	-22	3.3	10	4	-4	4562
Cc1cc(C(=O)CSc2nnc(-c3ccco3)o2)c(C)n1C	x	x	9.4	4	6	-3	x
Cc1snc(SCc2cccc(Cl)c2)c1C#N	-16	-14	4.6	17	-9	-7	3107
Clc1ccc(/C=N/Nc2ccccn2)cc1	6	-95	x	x	x	x	2562
Cn1cc(/C=C(\NC(=O)c2ccccc2Cl)C(=O)NCCCN2CCOCC2)c2ccccc21	0	1	-2.8	0	-1	8	5601
CC(C)Oc1ccc(CN2CCC(n3nccc3NC(=O)CCc3ccccc3)CC2)cc1	-8	-17	-2.5	8	8	-1	4766
Cc1cccc(N2CCN(C(=O)CN3C(=O)C4CC=CCC4C3=O)CC2)c1C (stereo unspecified)	-10	-60	-0.3	4	8	-3	2290
O=C(CNCc1cccc2ccccc12)Nc1ccccc1[N+](=O)[O-]	-7	-21	-9.1	6	13	2	3289
COc1cc(S(=O)(=O)N2CCN(c3ccccc3F)CC2)c(OC)cc1Cl	2	-13	-1.7	-3	x	x	2802
O=C(COC(=O)c1ccccc1NCCO)NCc1cccs1	-2	19	3.8	7	7	0	7750
C=CCn1c(SCc2nc(N)nc(N3CCCCC3)n2)nnc1-c1ccco1	2	-12	5.2	9	6	2	6041
COc1ccc(/C=C(\C#N)C(=O)Nc2cccc3ncccc23)cc1OC	17	-12	1.3	13	2	0	5096
CCc1ccc2c(c1)C(c1ccc([N+](=O)[O-])cc1)=NNC(c1ccc(C)cc1)=N2	7	-18	-4.7	-4	6	3	2454
Cc1ccc(CNC(=O)C2CC3Cn4c(nc5cc(Cl)c(Cl)cc54)C3N2C)o1 (stereo unspecified)	-7	-23	1.2	1	9	9	3838
Cc1cc2cc(CCNC(=O)c3ccc(S(=O)(=O)N4CCCC4)cc3)c(=O)[nH]c2cc1C	-5	5	1.8	4	-3	0	5242
COc1ccc(NC(=O)CCC(=O)OC(C(=O)c2ccccc2)c2ccccc2)cc1 (stereo unspecified)	-7	-26	3.4	-5	7	7	20295*
CN1C(=O)N(C)C2(c3ccccc3)NNC(N)=NC12c1ccccc1 (stereo unspecified)	-3	-25	2.6	3	3	2	x
O=C(COC(=O)c1ccccc1F)NCc1ccc2c(c1)OCO2	x	-16	3.6	4	21	45	3477
COCCCNc1nc2c(c(=O)n(Cc3cccc(Br)c3)c(=O)n2C)n1C	-10	-6	-1.1	0	4	-6	6144
CC(=O)c1cccc(NC(=O)N2CCCC2C(=O)Nc2ccc3c(c2)OCO3)c1 (stereo unspecified)	-8	-13	1.8	7	9	-1	2050
COc1ccc(C(=O)NC(C)CCn2cccn2)cc1OC1CCN(C(C)C)CC1 (stereo unspecified)	-4	-13	6.7	3	11	1	5053
CCOC(=O)C(C)NC(=O)CCc1nnc2ccc(N3CCCCC3)nn12 (stereo unspecified)	7	-16	-1.1	12	6	-2	3900
O=C(CSc1ccccc1)Nc1ccc2c(c1)OCCO2	-2	-64	x	x	x	x	6937
O=C(O)c1ccc2c(c1)CCCN2	-13	x	0.9	5	23	3	3521
CCOC(=O)CC(NC(=O)Cc1ccc(F)cc1)c1ccccc1Cl (stereo unspecified)	-7	-9	-1.0	3	14	1	2466
COc1ccc2cc(C3CC(c4ccco4)=NN3S(C)(=O)=O)c(Cl)nc2c1 (stereo unspecified)	1	-14	5.0	18	-7	-8	4870
O=C(O)[C@H]1CCC(=O)N1Cc1ccco1	-11	-20	3.0	1	9	4	9630
Nc1nc(-c2ccco2)cs1	-3	-15	4.4	5	13	10	3172

Some of these compounds in order of SMILES length, highest first.
molecule	BJeLR viability	PrP 5UTR inh	RN4220 kill	Sa ugtP lethal	Mtb hypoxia inh	Mtb hypoxia inh growth	Autofluor counter
COc1ccc(NC(=O)CCC(=O)OC(C(=O)c2ccccc2)c2ccccc2)cc1 (stereo unspecified)	-7	-26	3.4	-5	7	7	20295*
COc1cc(S(=O)(=O)N2CCN(c3ccccc3F)CC2)c(OC)cc1Cl	2	-13	-1.7	-3	x	x	2802
CN1C(=O)N(C)C2(c3ccccc3)NNC(N)=NC12c1ccccc1 (stereo unspecified)	-3	-25	2.6	3	3	2	x
O=C(COC(=O)c1ccccc1F)NCc1ccc2c(c1)OCO2	x	-16	3.6	4	21	45	3477
Clc1ccc(/C=N/Nc2ccccn2)cc1	6	-95	x	x	x	x	2562
O=C(O)c1ccc2c(c1)CCCN2	-13	x	0.9	5	23	3	3521

Later entries
molecule	BJeLR viability	PrP 5UTR inh	RN4220 kill	Sa ugtP lethal	Mtb hypoxia inh	Mtb hypoxia inh growth	Autofluor counter
O=C(NC(=S)Nc1ccc(Cl)cc1)c1ccccc1	-8	-26	3.9	24	0	8	3939
CCCCn1c(N)c(N(CCOC)C(=O)c2cc(-c3ccccc3Cl)nc3ccccc23)c(=O)[nH]c1=O	-7	-15	-1.0	-6	-3	1	x
COC(=O)NC1(C(F)(F)F)C(=O)NC(C)=C1C(=O)OC (stereo unspecified)	3	8	-2.6	-7	x	x	5452
COc1ccc(C2C(C#N)=C(C)NC3=C2C(=O)CC(C)(C)C3)cc1 (stereo unspecified)	-8	6	1.3	5	-6	7	4381
Oc1ccc(Br)cc1-c1cc(-c2ccco2)[nH]n1	5	-29	1.0	3	x	x	2678
O=S1(=O)NC(c2ccccc2)CC(CC2CCCCC2)O1 (stereo unspecified)	-16	-26	x	x	x	x	3339
CCOC(=O)C(=CNc1cccnc1Oc1ccc(C)c2c1CCC2)C(=O)OCC	-8	-16	-1.0	-16	6	14	4836
CC1CC(NC(=O)CCn2c(=O)oc3ccccc32)CC(C)(C)C1 (stereo unspecified)	x	-7	-8.0	-5	3	10	6377
COC(=O)c1nn(-c2nc(-c3ccc(OC)c(OC)c3)cc(C(F)(F)F)n2)cc1[N+](=O)[O-]	-3	-13	3.2	-9	-2	-1	4580
COc1ccc(-c2nn(C)c(=O)c3ccccc23)cc1CNC(=O)c1ccco1	-3	-3	-2.1	-3	x	x	5863
CC(=O)n1cc(N(C(=O)CCl)c2ccccc2)c2ccccc21	100*	1	37	41	x	x	x
FC(F)(F)c1cc(Oc2ccc(Cl)cc2)nc(-c2ccccn2)n1	16	-3	-6.4	9	9	17	23289*
CC(C)(C)c1[nH]nc2c1C(c1ccoc1)C(C#N)=C(N)O2 (stereo unspecified)	-1	-8	2.5	0	x	x	2295
COc1cc(NC(=O)CC(C)S(=O)(=O)c2cc3c(cc2C)NC(=O)CO3)cc(OC)c1OC (stereo unspecified)	-8	-7	4.3	13	14	1	5733
O=C(Cn1cnc2c(oc3nc4c(cc32)CCCC4)c1=O)Nc1ccccc1	2	-35	0.3	-1	-7	-2	4996
Cc1c(CC(=O)O)c(=O)oc2c(C)c(OCc3c(F)cccc3Cl)ccc12	1	x	22	5	5	9	3600
CCCCOc1ccc(C(=O)OCC(=O)N2CCOCC2)cc1	-3	-7	-0.6	-2	3	1	6213
COc1ccc(NC(=O)N(C)C[C@H]2Oc3ccc(NC(=O)C4CC4)cc3C(=O)N([C@H](C)CO)C[C@@H]2C)cc1	x	10	-5.7	-5	-3	1	3092
Cn1cc([N+](=O)[O-])c(C(=O)Nc2nccs2)n1	4	-4	x	x	x	x	2059
COC(=O)c1ccccc1NC(=O)c1ccc2c(c1)CC(C)O2 (stereo unspecified)	4	-21	7.2	2	7	8	4042
CCC(CC)COC(=O)C1=C(C)NC(=O)NC1c1cccc([N+](=O)[O-])c1 (stereo unspecified)	5	-5	0.4	-6	-10	0	3790
COC(=O)C1=C(C)C(c2cccs2)NC(=O)N1C (stereo unspecified)	4	1	3.2	-3	0	2	16502*

Screens: PubChem BioAssay, several laboratories
